# NPYLR7 ag = agonists of mosquito NPYLR7 receptor, primary screen, cell-based, Aedes aegypti, calcium fluorescence, mosquito biting behavior | Aedes aegypti neuropeptide Y-like receptor 7 (NPYLR7) | HEK293T NPYLR7/Galpha15, GCaMP6s calcium fluorescence | activation, % at 10 µM | 270,000 tested, 0.15% active | AID 1259423, 2018; in the data active means activation above about 40%;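 further: 0% = vehicle and 100% = reference agonist at the receptor; some compounds past the cut are filed as inactive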
# NPYLR7 ag max-min = second read-out of NPYLR7 ag, no call of its own (marks repeat the call); activation, %; measured here: Max-Min RFU normalised activation; some inactives read as strong as hits;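 span of the calcium signal over five minutes; 0% = vehicle and 100% = native peptide agonist; compound fluorescence can raise it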
# Active calls of the source: *. An excerpt; count on the stated rates, not on these rows.
# Preview:
SMILES,NPYLR7 ag,NPYLR7 ag max-min
CC1(C(=O)NCc2ccc(Cl)cc2)CCN1C(=O)Cc1cccc2ccccc12 (configuration not stated),-3,-6
O=C(CN(Cc1ccco1)c1cccc(F)c1)NCC1CCC1,-7,-6
CCNC(=O)[C@@H]1C[C@H](N)CN1C(=O)C1(c2ccc(OC)cc2)CCCC1,2,1
COc1cc(Cn2nc(C)c3cnn(-c4cccc(Cl)c4)c3c2=O)cc(OC)c1,-6,-5
Cc1ccc(Cl)cc1N1CCN(C(=O)c2cccc(Br)c2)C(C)C1=O (configuration not stated),-12,-8
COc1ccc(S(=O)(=O)Nc2ccc(-c3cn4ccc(C)nc4n3)cc2)cc1,0,-2
O=C(CC1CCCC1)NNC(=O)CC12CC3CC(CC(C3)C1)C2,2,1

# All compounds of this part, from the start:
SMILES,NPYLR7 ag,NPYLR7 ag max-min
CC1(C(=O)NCc2ccc(Cl)cc2)CCN1C(=O)Cc1cccc2ccccc12 (configuration not stated),-3,-6
O=C(CN(Cc1ccco1)c1cccc(F)c1)NCC1CCC1,-7,-6
CCNC(=O)[C@@H]1C[C@H](N)CN1C(=O)C1(c2ccc(OC)cc2)CCCC1,2,1
COc1cc(Cn2nc(C)c3cnn(-c4cccc(Cl)c4)c3c2=O)cc(OC)c1,-6,-5
Cc1ccc(Cl)cc1N1CCN(C(=O)c2cccc(Br)c2)C(C)C1=O (configuration not stated),-12,-8
COc1ccc(S(=O)(=O)Nc2ccc(-c3cn4ccc(C)nc4n3)cc2)cc1,0,-2
O=C(CC1CCCC1)NNC(=O)CC12CC3CC(CC(C3)C1)C2,2,1
Cc1cc(=O)n(CC(C)O)c(O)c1C#N (configuration not stated),18,31
CCc1ccc(S(=O)(=O)N2CCN(c3cc(-n4ccnc4C)ncn3)CC2)cc1,-14,-19
CC1C(=O)N(c2cccc(C(F)(F)F)c2)CCN1C(=O)c1cccc(F)c1 (configuration not stated),-10,-5
Cc1ccc(C(N)=O)cc1I,-1,-6
CCc1ccc(S(=O)(=O)Nc2cccc(-c3ccc(=O)n(C)n3)c2)s1,0,1
O=S(=O)(Nc1cccc(S(=O)(=O)N2CCCCC2)c1)c1cccc(F)c1,8,6
CCN(c1ccccc1)S(=O)(=O)c1ccc(C(=O)NC)cc1,8,7
CN(C)C(CNc1nccnc1-c1cc(C(F)(F)F)cc(C(F)(F)F)c1)c1cccnc1 (configuration not stated),-5,-10
COc1cccc(C2CC(c3cccc(C)c3)=NN2C(=O)CN2CCCCC2)c1 (configuration not stated),22,23
CCCN1CC(NC(=O)c2ccc(Cn3cnnn3)cc2)CC1=O (configuration not stated),2,2
CNc1cncc(-c2cc(OC)ccc2OC)n1,0,-3
COc1ccc(S(=O)(=O)Nc2nc(CC(=O)Nc3cccc(Cl)c3C)cs2)cc1,9,6
c1ccc(NC2CCN(Cc3cc4n(n3)CCCNC4)CC2)nc1,9,5
COC(=O)c1sccc1S(=O)(=O)N1CCCC(C(=O)c2cccc(Cl)c2)C1 (configuration not stated),-1,-2
CCOC(=O)C1CCCN(CC(=O)N2N=C(c3ccc(C)cc3C)CC2c2ccccc2Cl)C1 (configuration not stated),-2,6
CC(Sc1nccn1-c1ccc(Cl)cc1)C(=O)N1CCOCC1 (configuration not stated),1,0
Cc1cnn(C)c1C(=O)Nc1nc2c(Cl)ccc(Cl)c2s1,-7,-8
O=S(=O)(c1ccc(NCC2COCCO2)cc1)C(F)F (configuration not stated),2,1
Cc1ccc(C)c(C(C)NC(=O)CC#N)c1 (configuration not stated),5,4
COc1ccc2[nH]c3c(c2c1)CCN(C(=O)c1ccc([N+](=O)[O-])o1)C3c1ccc(-c2ccccc2C(F)(F)F)o1 (configuration not stated),11,-1
CN(Cc1cccc(Cl)c1)Cc1cnc(S(C)(=O)=O)n1CC1CCCCC1,5,4
CNC(=S)N(CCc1ccc(OC)cc1)C1CC(=O)N(c2ccc(OC)cc2)C1=O (configuration not stated),0,-2
Cc1c(C(=O)NC(C)c2ccc(Br)cc2)cnc2c(-c3cccs3)cnn12 (configuration not stated),6,14
O=C(NCCCc1ccccn1)c1ccc(-c2cccc3c2OCC3)nc1,5,5
Cc1ccc(N2NC(C(=O)NC3CCN(C(=O)c4ccoc4)CC3)=NCC2=O)cc1,-6,-7
C=CCn1c(=O)c2c(nc3n2CCCN3c2ccc(Oc3ccccc3)cc2)n(C)c1=O,3,1
CCCCN1CCCCC1(C)C(=O)NCc1ccccn1 (configuration not stated),5,1
Cn1c(/C=C/c2ccccc2)nnc1-c1ccccc1O,1,1
CC(C)c1ccc(OCC(=O)N2CCN(C(=O)c3cccs3)CC2)cc1,29,17
CCC(=O)NC1CCCN(C(=O)c2ccc3c(c2)C(=O)c2ccccc2-3)C1 (configuration not stated),-1,-2
COc1ccc(C(O)=C2C(=O)C(=O)N(CCCN(C)C)C2c2ccc(O)cc2)c(C)c1 (configuration not stated),-6,-13
O=S(=O)(Nc1ccc(F)c(Cl)c1)c1cccc2cccnc12,0,3
CN(C)S(=O)(=O)c1cccc(C(=O)N2CCCSC2=NCc2ccccc2)c1,3,1
Cn1c(=NC(=O)C2CCCN2S(=O)(=O)c2cccs2)sc2cc3c(cc21)OCO3 (configuration not stated),0,-2
NC(=O)c1csc(-c2ccccc2CN2CCOCC2)n1,2,13
CC(CCc1ccccc1)NC(=O)c1cc(-c2ccco2)nn1-c1cccc(Cl)c1 (configuration not stated),-3,2
Cc1ccc(S(=O)(=O)N2CCN(C(=O)CCN3C(=O)CCC3=O)CC2)cc1,4,9
O=C1[C@@H]2C[C@H](O)CCN2C(=O)CN1CCc1ccccc1Cl,-8,-10
CCOc1ccc(C2=CSC3=NCCN23)cc1,3,1
Cc1noc(C)c1CC(=O)NCc1ccccc1-n1ccnc1C,13,9
CCc1c(C(=O)OC)sc2nc(CN(CC(O)COc3ccccc3)C3CCCCC3)[nH]c(=O)c12 (configuration not stated),16,13
COc1ccc(C=CC(=O)c2ccc(OC)cc2OC)c(OC)c1,-6,-7
CCCCN(CC(=O)N1CC(=O)N(c2cccc(C)c2)C1)C(=O)c1cccc(C(F)(F)F)c1,12,15

# Additional results
SMILES,NPYLR7 ag,NPYLR7 ag max-min
COc1cc(C(=O)NCCc2cc3c(OC)ccc(OC)c3[nH]c2=O)cc(OC)c1OC,1,34
CCN(CC)c1onc(-c2ccccc2)c1CN(Cc1ccco1)CC(O)COc1ccccc1 (configuration not stated),16,16
COc1cn(CC(=O)NC2CCCCC2)c(CN2CCCCC2)cc1=O,-4,-5
Cc1cc(C)c(NC(=O)CSc2nc3ccccc3[nH]2)c(C)c1,-1,-6
CCN(CC)c1ccc(CN(Cc2ccco2)C(=O)c2cccc(F)c2)c(OS(=O)(=O)CC)c1,9,3
Clc1cc2c(cc1-c1nccn1-c1ccc(Oc3nn[nH]n3)cc1)OCO2,13,10
COc1ccc(OC)c(C(=O)C2CC(=O)CO2)c1 (configuration not stated),-4,-9
COC(=O)C1CCN(C(c2ccc(C(C)C)cc2)C2Sc3nc(C)nn3C2=O)CC1 (configuration not stated),1,-4
Cc1ccc(CNC(=O)c2c(O)nc3ccccn3c2=O)cc1,-2,13
COc1ccc(OC2CCN(C(C)=O)CC2)c(C(=O)N2CCCCC2CCO)c1 (configuration not stated),1,-3
Cc1cccc(OCC(O)CN(c2c(C)cc(C)cc2C)S(C)(=O)=O)c1 (configuration not stated),9,5
CN1CCNC(=O)C12CCN(C(=O)c1ccccc1-c1ccccc1)CC2,2,1
Cc1cc(C)cc(CSc2nnc(NC(=O)Cc3cccs3)s2)c1,-2,8
O=S1(=O)NC(=NCc2ccc3c(c2)OCCO3)c2ccccc21,10,7
O=C(Cn1c(=O)oc2ccccc21)N1CCCC(c2ccn[nH]2)C1 (configuration not stated),-2,-3
Cc1ccc(CN(C(=O)c2cccc(OCC(N)=O)c2)C2CCCC2)s1,-5,-9
CCn1c(SCC(=O)N2CCN(c3ccccc3)CC2)nc2c([nH]c3ccccc32)c1=O,-1,-1
CC1Oc2ccccc2OC1C(=O)NCc1ccc(S(=O)(=O)N2CCOCC2)cc1 (configuration not stated),13,17
O=C(NCCOc1ccc2nnc(-c3ccccc3)n2n1)Nc1ccccc1,-1,-2
O=C(Cn1cnc(-c2ccccc2)cc1=O)NC(c1ccccc1)c1ccccc1,13,5
Cc1ccc(-c2csc(=Nc3cccc(C)c3C)n2N2CCOCC2)cc1,-4,-8
CCn1c(C)cc(O)c(C(c2ccccc2)N2CCN(CCO)CC2)c1=O (configuration not stated),11,1
COCCN1C(=O)N(CC(C)C)C(=O)C12CCN(Cc1ccncc1)CC2,11,-1
Cc1c(NC(=O)c2sc3ccccc3c2Cl)c(=O)n(-c2ccccc2)n1C,16,6
Nc1ccnn1Cc1cccc(Br)c1,-2,-3
Cc1cccc2c1NC1(CCN(C(=O)c3ccc(C(C)(C)C)cc3)CC1)NC2=O,19,11
O[C@H]1CN(c2nc(-c3ccccc3)no2)C[C@@H]1N1CCOCC1,7,5
O=C(CN1CCC(N2CCCC2)C1)N1N=C(c2cccs2)CC1c1ccco1 (configuration not stated),15,13
CCOc1ccc2nc(N3CCC(C(=O)NCc4ccccc4OC)CC3)nc(C)c2c1,28,11
CC(NC(=O)C1CCCC1)C(=O)Nc1ccc(-c2n[nH]c(C3CC3)n2)cc1 (configuration not stated),16,11
COc1ccc(C(=O)NCCn2cc(SC(=N)N)c3ccccc32)cc1,-9,-16
O=C1NC2(CCN(Cc3ccccc3C(F)(F)F)CC2)Nc2cccc(Cl)c21,2,12
CCc1c(C)nc2c(-c3ccccc3)c(C)nn2c1Nc1ccc(NC(C)=O)cc1,2,9
CC1CCc2c(sc3ncnc(N(C)Cc4nc5ccccc5c(=O)[nH]4)c23)C1 (configuration not stated),5,2
CCCc1c(C)nn(-c2ccc(C(=O)NCCc3ccccn3)cc2)c1C,-8,-17
CCCCN(C(C)=O)c1c(CC)nc2ccc(C(=O)NCCCN(C)C)cn12,-2,-5
CCCCNC(=O)CSc1nc(-c2ccc(OC)c(OC)c2)cc(C(F)(F)F)n1,-8,-9
O=C1C2C3C=CC(C3)C2C(=O)N1c1ccc2ccccc2n1 (configuration not stated),11,3
Cc1ccc(-c2nnc(CN3CCCCC3c3ccccn3)o2)n1C (configuration not stated),0,-1
N#Cc1c(N)n(Cc2ccccc2)c2nc3ccccc3nc12,20,11
O=C1C2C3C=CC(O3)C2C(=O)N1c1ccc2c(c1)OCO2 (configuration not stated),6,2
CCOCCOC(=O)C1=C(C)NC2=C(C(=O)CC(c3ccc(Cl)cc3)C2)C1c1cccc(OC)c1 (configuration not stated),-11,-15
CCOC(=O)C1CCN(C(=O)c2nn(-c3cccc(C)c3)c(=O)n(Cc3cccc(C(F)(F)F)c3)c2=O)CC1,8,6
Cn1ccc2c(-c3cc4c(cc3C(N)=O)OCO4)ccnc21,10,-5
CCOc1ccc(OCC(=O)N2CCN(c3ncnc4c3nnn4Cc3ccccc3)CC2)cc1,0,-6
O=C(NCC1(N2CCOCC2)CCCC1)c1coc(Cn2cnc3ccccc32)n1,6,5
O=C(c1ccc2c(c1)OCO2)N1CCC2(CC1)SCCN2C(=O)c1ccc(C(F)(F)F)cc1,19,20
CCN(c1ccc(NC(=O)c2ccc(NC(=O)c3ccco3)s2)cc1)C(C)C,-1,68
CC(C)Cn1c(Cn2ccnc2)nc2cc(NS(=O)(=O)c3ccccc3)ccc21,6,4
O=C(Cn1cc(Br)ccc1=O)NCc1nc(-c2ccccc2)cs1,12,9

# (further entries)
SMILES,NPYLR7 ag,NPYLR7 ag max-min
CCOCCn1c(CN2CCCCC2CC)nc2c1c(=O)n(C)c(=O)n2C (configuration not stated),4,0
NS(=O)(=O)c1ccc(-c2ccc(/C=C3\SC(=S)N(CC(=O)O)C3=O)o2)cc1,11,2
CC(=O)C1=C(C)Nc2ncnn2C1c1ccco1 (configuration not stated),6,9
Cc1ccc(C)c(CN2CCN(c3nc4c(c(=O)[nH]c(=O)n4C)n3Cc3ccccc3F)CC2)c1,2,-3
O=C(Cc1ccc(O)cc1)NCC1CCCN(Cc2ccncc2)C1 (configuration not stated),6,-2
O=C(Cn1ccc(-c2ccc(F)cc2)n1)N1CCc2sccc2C1,-8,-6
C/C(Cl)=C/Cc1c(C)[nH]c2c(C)cccc2c1=O,-1,-5
O=C(O)C(Cc1ccccc1)N1C(=O)/C(=C/c2c(Cl)cccc2Cl)SC1=S (configuration not stated),-3,-10
CCN(C(=O)C1CCN(S(=O)(=O)c2ccc(OC)cc2)CC1)C1CCCCC1,1,-1
NC(=O)NCCCCC(NC(N)=O)C(=O)O (configuration not stated),2,10

# Two records drawn at random from the list so far:
SMILES,NPYLR7 ag,NPYLR7 ag max-min
CC(=O)C1=C(C)Nc2ncnn2C1c1ccco1 (configuration not stated),6,9
C/C(Cl)=C/Cc1c(C)[nH]c2c(C)cccc2c1=O,-1,-5

# (further entries)
SMILES,NPYLR7 ag,NPYLR7 ag max-min
Cc1ccccc1-n1ncc(C(C)NC(=O)c2cn3c(C)cccc3n2)c1C (configuration not stated),0,1
Cc1cccc2ncc(C(=O)N(C)Cc3cc(C(C)(C)C)n[nH]3)c(=O)n12,15,13
CC1=CC[C@@H]2CN(C(=O)Cc3ccc(N4CCNC4=O)cc3)C[C@@H]2C1,-1,-8
COCCCNC(=O)C(=O)NCC1CCCO1 (configuration not stated),0,0

# Complete entries, quoted from the list. Screens in order: NPYLR7 ag | NPYLR7 ag max-min
# Shown for CN(C)S(=O)(=O)c1cccc(C(=O)N2CCCSC2=NCc2ccccc2)c1 = 3 | 1
# Shown for COc1ccc(C(O)=C2C(=O)C(=O)N(CCCN(C)C)C2c2ccc(O)cc2)c(C)c1 (configuration not stated) = -6 | -13

# Bioassay records from PubChem.
